High-throughput results (PubChem BioAssay)
GIV Gai3 FP = inhibitors of GIV GBA-motif binding to rat Galpha-i3 | P08753 | Galpha-i3/FITC-GIV peptide fluorescence polarization, 90 min; hits give low values; scaled: aluminum fluoride 0%, vehicle 100% | percent of control (FP), % (test concentration not listed) | actives 0.42% (n = 210,000);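 active = replicate mean at 85% of control or lower, very high polarization wells dropped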;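 also: wells of about 15 µL received 100 nL stock; the first replicate is given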
Target sequence (P08753 whole entry, looked up): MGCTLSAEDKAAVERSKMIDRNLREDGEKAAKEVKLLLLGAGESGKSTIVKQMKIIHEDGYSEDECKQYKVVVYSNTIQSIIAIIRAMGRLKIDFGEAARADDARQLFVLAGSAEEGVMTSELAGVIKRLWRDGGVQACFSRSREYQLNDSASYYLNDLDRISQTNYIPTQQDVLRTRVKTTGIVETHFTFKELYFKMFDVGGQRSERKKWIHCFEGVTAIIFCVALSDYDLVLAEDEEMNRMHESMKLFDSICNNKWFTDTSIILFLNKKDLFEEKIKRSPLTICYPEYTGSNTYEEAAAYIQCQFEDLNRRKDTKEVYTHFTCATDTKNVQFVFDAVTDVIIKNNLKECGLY
HCMV UL50-53 inh = inhibitors of HCMV UL50-UL53 nuclear egress complex interaction. AID 1918969. inhibition, % (no concentration beside the values). actives 0.15% (n = 190,000). HTRF UL50-UL53 interaction, normalized percent inhibition;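 active = both replicates at 50% or more, plus weaker picks with an unusually low signal ratio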;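 also: stock transfer was 100 nL into about 20 µL; 0% = negative control wells and 100% = wells with untagged competitor protein; inactives centre near -12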
Sa growth 42C = inhibitors of Staphylococcus aureus growth at 42 °C | actives 0.53% (n = 170,000) | relative growth, % (concentration not given with the values) | S. aureus RN4220 growth, OD600, 20 h; hits give low values;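 active = growth at 42 °C up to 50% and 20 or more points under that at 30 °C, or under 10% at both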;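 also: 300 nL library stock went into each well; scaled to the means of positive and negative controls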
Sa growth 42C second temp = also measured in Sa growth 42C; calls as there; relative growth, %; measured here: growth at 30 °C;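 optical density after 20 h as mean of two plates; 100% = untreated growth and lower means inhibition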
Numbers without * were called inactive; x = not tested or not shown; & = joins results of further samples.

Fields – GIV Gai3 FP | HCMV UL50-53 inh | Sa growth 42C | Sa growth 42C second temp
CCc1ccccc1N(C)C(=O)CCn1cnc2onc(-c3ccc(F)cc3)c2c1=O
  99 | -5 | 87 | 47
O=C(O)CSc1ccc2ccccc2c1
  99 | -15 | 120 | 82
O=C(O)CCC(=O)N(Cc1ccccc1)Cc1cn(-c2ccccc2)nc1-c1cccnc1
  103 | x | 120 | 85
c1ccc(-c2cc3ccccn3c2)cc1
  107 | -20 | x | x
Cc1ccc(NC(=O)c2ccc(-n3nnc4cccnc43)cc2)c(Cl)c1
  137 | -33 | x | x
COc1ccc(CN(CCN)C2CC(C)N(C)CC2C)cc1 (centres undefined)
  108 | 1 | 115 | 79
CCOc1ccc2[nH]c(=O)c(CNCCCO)cc2c1
  111 | -39 | 104 | 84
CCOc1ccc(NC(=O)c2sc3nc(C)nc(N4CCOCC4)c3c2C)cc1
  107 | -26 | x | x
COc1ccc(NC(=O)c2cc3c(=O)[nH]c4ccccc4c3n2C)cc1Cl
  96 | -18 | 99 | 90
COc1ccc(-c2nc(SCC(=O)c3ccc(Br)cc3)n[nH]2)cc1
  111 | -11 | 105 | 102
Cc1ccc(S(=O)(=O)Cc2nc(-c3ccc(C(=O)NC(C)C)cc3)oc2C)cc1
  102 | -14 | 109 | 95
CC1CCN(Cc2c(C(=O)N/N=C/C=C/c3ccccc3)nnn2-c2nonc2N)CC1
  104 | -5 | 95 | 92
COC(=O)C1=C(Nc2ccccc2NS(=O)(=O)c2ccccc2Cl)CSC1
  109 | 3 | 126 | 99
CCN(CC)c1ccc(NC(=O)C2CCN(S(=O)(=O)c3ccc4c(c3)oc(=O)n4C)CC2)c(C)c1
  104 | -13 | 110 | 93
N#Cc1cc2c(N)c(C(=O)Nc3ccccc3)sc2nc1N
  x | 12 | 78 | 86
CCCCN(C)C(=O)C1CCC(Cn2c(=O)[nH]c3ccsc3c2=O)CC1 (centres undefined)
  100 | x | 97 | 92
S=c1nc(-c2cccs2)[nH]n1CN1CCOCC1
  x | -59 | 51 | 57
O=S(=O)(NCCc1c[nH]c2ccccc12)c1ccccc1
  x | -8 | 103 | 93
Cn1c(=O)c2c(nc(CN3CCN(c4ccc(F)cc4)CC3)n2CCN2CCOCC2)n(C)c1=O
  105 | 4 | 108 | 102
COC(=O)c1nc(C(=O)OC)c(C(=O)OC)nc1C(=O)OC
  106 | -52 | 87 | 85
Cc1nn(-c2ccccc2)c(C)c1CN(C)C(=O)CN1C(=O)COc2ccccc21
  x | -20 | 82 | 76
CCN(C(=O)CCc1nc(-c2ccccc2F)no1)c1cc(Cl)ccc1OC
  100 | x | 122 | 88
CN(C)C(=O)Cn1c(Cl)nc2c1c(=O)n(C)c(=O)n2C
  x | -17 | 93 | 96
Cc1cc(C(=O)NNC2=NCCCCC2)n[nH]1
  x | -23 | 91 | 95
Cc1nc(C)c(CC(=O)O)c(=O)[nH]1
  99 | 0 | 100 | 84
O=C(Nc1nc(-c2ccc(Br)cc2)ns1)c1ccccc1F
  100 | -12 | 97 | 94
N#Cc1c[nH]c2ccc(NC(=O)/C=C/c3ccc(OC(F)(F)F)cc3)cc12
  107 | -34 | 110 | 88
O=[N+]([O-])c1c(Nc2ccccc2O)cc(N2CCOCC2)c2nonc12
  106 | -47 | x | x
Nc1nc(Nc2ccccc2)nc2c1ncn2[C@@H]1O[C@H](CO)[C@H](O)C1O (some centres undefined)
  104 | -7 | x | x
COc1ccc(C2CC(=O)C3=C(C2)NC(C)=C(C(=O)OC(C)C)C3c2ccccc2OC)cc1OC (centres undefined)
  105 | -10 | x | x
Cc1cc[n+](CC2OCc3ccccc3CO2)cc1
  101 | x | 94 | 95
Cc1cccc(-n2[nH]c(=S)sc2=S)c1
  x | -23 | 88 | 84
N#Cc1c(NC(=O)CN2CCCCC2)sc2c1CCC2
  108 | -10 | 105 | 74
CCCCN1C(=O)C(O)(CC(=O)c2ccc(C)cc2)c2ccccc21 (centres undefined)
  97 | -24 | 89 | 84
Cn1c(=O)c(N2CCCC(C(=O)NCCc3c[nH]c4ccc(Cl)cc34)C2)nc2ccccc21 (centres undefined)
  106 | -3 | x | x
CC(C)(C)c1cc(N)n2nc(C(C)(C)C)cc2n1
  100 | x | 88 | 95
CCOC(=O)c1c(C)[nH]c(C)c1S(=O)(=O)N1CCC(C(=O)N2CCN(c3ccc(Cl)cc3)CC2)CC1
  107&106 | x | 105 | 87
Cc1ccc(C(C(=O)NCC2CCCO2)N(Cc2ccc3c(c2)OCO3)C(=O)c2ccc(-c3ccccc3)[nH]2)o1 (centres undefined)
  106 | 2 | 111 | 92
N#Cc1cc2nc(O)c(O)nc2cc1[N+](=O)[O-]
  104 | -100&-164 | x | x
COC(C(=O)NCc1ccc(Cl)cc1Cl)c1ccccc1 (centres undefined)
  x | 4 | 97 | 107
O=C(Nc1ncccc1O)c1c(O)c2cccc3c2n(c1=O)CC3
  x | -20 | 96 | 83
O=C(NCc1ccc2c(c1)CCO2)c1ccc2nsnc2c1
  108 | -192 | 87 | 84
CN(C)S(=O)(=O)N(CC(=O)NCCSCc1ccc(Cl)cc1Cl)c1ccccc1
  103 | -16 | 95 | 76
CN(Cc1cnc2nc(N)nc(N)c2n1)c1ccc(C(=O)N[C@@H](CCC(=O)O)C(=O)O)cc1
  99 | -60&-76&-84 | 66 | 66
CCCNc1nc(-c2ccccc2)cs1
  104 | -31 | 84 | 78
Cc1ccccc1OCCn1cc(/C(N)=N/O)c2ccccc21
  106 | x | 104 | 72
Cn1c(NCCO)nc2c1c(=O)n(Cc1ccccc1Cl)c(=O)n2C
  105 | -46 | 88 | 97
Cc1ccc(N(C)C(=O)Cn2nc(Cc3ccncc3)c3ccccc3c2=O)cc1C
  104 | -37 | 102 | 75
Cc1cc(C)nc(N2C(=O)CC(C(=O)O)NC2=NCCc2c[nH]c3ccccc23)n1 (centres undefined)
  103 | x | 94 | 85
COC(=O)c1ccc(CSc2nnc(CNC(=O)c3ccco3)o2)o1
  99 | -27 | 85 | 83

(continued)
Fields – GIV Gai3 FP | HCMV UL50-53 inh | Sa growth 42C | Sa growth 42C second temp
NC(=O)CSc1nc2c(c(=O)n1-c1cccc(Br)c1)C1(CCCCC1)Cc1ccccc1-2
  107 | -4 | x | x
COc1ccc(C(=O)c2ccc(F)cc2)cc1
  105 | 20 | 113 | 107
COc1ccc(OC)c(NC(=O)c2ccc3c(c2)c(C)c(C)n3Cc2ccc(F)cc2)c1
  113 | x | 101 | 105
CCCC(=O)Nc1c(C(=O)N2CCN(c3ccccc3)CC2)oc2ccccc12
  104 | -19 | 75 | 42
CC(C)(C)C1CCc2onc(C(=O)NCc3ccc(F)cc3)c2C1 (centres undefined)
  107 | x | 91 | 88
CC1=C(C(=O)Nc2cccc(C(=O)N3CCN(c4ccc(F)cc4)CC3)c2)SCCO1
  107 | -17 | 99 | 84
O=C(CSc1ccncc1)N1CCN(S(=O)(=O)c2ccc3c(c2)CCC3)CC1
  x | 4 | 87 | 89
COc1cccc(C(=O)N2CCN(c3ncccc3C#N)CC2)c1
  102 | -20 | 86 | 78
Cc1cc(C(=O)N2CCN(c3ccccc3)CC2)c2c(C)nn(-c3cccc(F)c3)c2n1
  100 | x | 96 | 84
Cc1ccc(NS(=O)(=O)c2ccc(N3C(=O)c4ccccc4C3=O)cc2)cc1C
  x | 0 | 97 | 86

Following part:
smiles	GIV Gai3 FP	HCMV UL50-53 inh	Sa growth 42C	Sa growth 42C second temp
COc1ccc(N=c2oc3ccc(OC)cc3cc2C(N)=O)cc1	102	-43	96	83
O=C(Nc1nnc(CCS(=O)(=O)c2ccc(Br)cc2)s1)c1ccc(F)cc1	102	-18	x	x
COC(=O)c1ccc(S(=O)(=O)N2CCN(c3ccc(C(F)(F)F)cn3)CC2)n1C	104	-16	89	94
O=C(Cn1ccc(C(F)(F)F)n1)NC1CCCc2ccccc21 (centres undefined)	x	-18	114	97
CN(CCNC(=O)c1cc2c(s1)CS(=O)(=O)C2)C1CCCCC1	108	4	87	102
Cc1ccsc1C(N)=S	97	x	79	83
CSc1nn(Cc2ccc(C)cc2)c(N)c1S(=O)(=O)c1ccccc1	101	-10	93	76
Cc1n[nH]c(=S)n1/N=C\c1ccco1	103	-77	93	82
CCN(CC)c1ccc(NC(=O)c2ccc(OC)c(OC)c2)cc1	106	-19	120	96
FC(F)(F)c1ccnc(Oc2ccc(C3=NCCS3)cc2)c1	103	-18	93	86

Arranged by SMILES length (high to low): 5 of the compounds above
smiles	GIV Gai3 FP	HCMV UL50-53 inh	Sa growth 42C	Sa growth 42C second temp
CSc1nn(Cc2ccc(C)cc2)c(N)c1S(=O)(=O)c1ccccc1	101	-10	93	76
CN(CCNC(=O)c1cc2c(s1)CS(=O)(=O)C2)C1CCCCC1	108	4	87	102
CCN(CC)c1ccc(NC(=O)c2ccc(OC)c(OC)c2)cc1	106	-19	120	96
COc1ccc(N=c2oc3ccc(OC)cc3cc2C(N)=O)cc1	102	-43	96	83
Cc1ccsc1C(N)=S	97	x	79	83

(list continues)
smiles	GIV Gai3 FP	HCMV UL50-53 inh	Sa growth 42C	Sa growth 42C second temp
N#C/C(=C\c1ccc(Br)o1)c1nc(-c2cc3c(ccc4ccccc43)oc2=O)cs1	105	0	x	x
COc1ccc2[nH]cc(CCNC(=O)c3cnn(-c4ccc(F)cc4)c3C3CCNCC3)c2c1	107	4	x	x
CCSc1nc2sc3c(c2c(=O)n1-c1ccc(OC)cc1)CC(C(C)C)OC3 (centres undefined)	101	x	103	88
Cn1c(SCc2ccc(Br)cc2)nnc1-c1sc2ncccc2c1N	103	-23	x	x
COc1ccc(NC(=O)c2cc3ccccc3o2)c(OC)c1	108	x	98	98
CN(C(=O)c1cnn2c(C(F)F)cc(-c3ccccc3)nc12)C1CCCCC1	100	-39	94	69
COC(=O)c1c(NC(=O)CCCOc2ccc(C(C)(C)C)cc2)sc2c1C(C(=O)OC)CC2 (centres undefined)	104	-34	87	82
O=C(c1ccccc1F)N(Cc1cccs1)c1ccc(O)cc1	98	2	112	93
Cc1cc(NC(=O)Cn2c(NCc3ccccc3)nc3ccccc32)no1	x	-46	96	85
O=C(O)C1CCCN1C(=O)/C=C/c1ccc(F)cc1 (centres undefined)	x	-32	109	84
O=C(Nc1cccc2cnccc12)c1cc(Cl)cc(Cl)c1	x	-31	134	91
O=c1[nH]cnc2sc3c(c12)CCSC3	x	-21	95	87
CNc1c(NS(=O)(=O)c2ccc(OC)cc2)c(=O)oc2ccccc12	102	-29	99	81
OC(COCc1ccccc1)CN1CCc2ccccc2C1 (centres undefined)	x	-13	97	91
S=c1nc(NC2CC2)c2ccccc2[nH]1	101	-9	79&94	81&92
COc1ccccc1OCC(=O)NCCCN1CCOCC1	100	-17	89	91
Cc1ccc(NCc2nnc(SCC(=O)N3c4ccccc4CCc4ccccc43)o2)c(C)c1	97	0	101	73
O=C(NCc1cccnc1)c1ccccc1NC(=O)c1c(F)cccc1F	100	-16	94	81
COc1ccccc1C1C(C(=O)Nc2ccc(Br)cn2)=C(C)NC2=C1C(=O)CCC2 (centres undefined)	103	-9	x	x
COc1ccc(-c2cc(C(F)(F)F)nc(SCC(=O)N3CCc4ccccc43)n2)cc1OC	100	x	110	87
O=C1NC2(C(=O)O)CCC(=O)N2c2ccccc21 (centres undefined)	x	-16	67	92
Cc1ccc(C(=O)C2C(=O)C=C(c3ccc(C)cc3)OC2=O)cc1 (centres undefined)	x	-20	123	87
Cc1ccc2nc(Nc3ccc(F)cc3C)c3nncn3c2c1	96	3	102	94
CCn1c(=O)cc(SCC(=O)NCCCN2CCOCC2)c2ccccc21	100	-18	94	84
Cc1ccnc(NC(c2ccc(Cl)cc2)c2c(C)[nH]c3ccccc23)c1 (centres undefined)	101	x	86	30
COc1ccc(C(CC(=O)O)NC(=O)Cc2ccccc2)cc1 (centres undefined)	x	-16	95	84
C=CCNC(=O)CC12CC3CC(CC(Br)(C3)C1)C2	x	-27	103	82
CC(C)=NNC(=O)C1COc2ccccc2O1 (centres undefined)	x	1	93	98
Cc1ccc(OCCn2c(N)nc3ccccc32)cc1	98	x	93	61
Cc1ccc(CN2CCN(/N=C/C=C/c3ccco3)CC2)cc1	x	-10	114	93
CCCCn1c(Br)nc2c1c(=O)[nH]c(=O)n2C	107	x	92	85
S=C(NCC1CCCCC1)Nc1cccnc1	97	3	95	80
COc1ccccc1N1CCN(c2ccc(=O)n(CC(=O)NCCN(C)C)n2)CC1	106	-35	x	x
CCC(=O)Nc1cc(N2CCn3c(nc4ccccc43)C2)ccc1C	96	-10	x	x
COc1ccc(-c2noc(CSCC(=O)N3CCCCC3C)n2)cc1OC (centres undefined)	99	0	x	x
Cn1c(SCc2ccccc2)nc2cc(C(F)(F)F)cnc21	98	3	94	104
Cc1ccc(NC(=O)Cc2coc3c(C)c(C)ccc23)cc1Cl	104	-2	115	89
O=c1cc(-c2ccc(Cl)cc2)oc2ccccc12	112	15	111	103
O=C(Nc1ccc(Cl)cn1)C1(F)C(F)(F)C(F)(F)C(F)(F)C(F)(F)C1(F)F	104	11	112	94
COC(=O)CSc1ccc2nnc(-c3ccccc3)n2n1	104	-22	99	76
CC1=CC(c2ccc(Cl)cc2)n2nc(NC(=O)CCCC(=O)O)nc2N1 (centres undefined)	96	x	110	92
